Compound activity (PubChem)
Ub-GFP proteasome – inhibits proteasome, raising ubiquitin-GFP reporter fluorescence; Potency, µM (highest dose often 45.9 µM), without a hit: at the highest dose activation (GFP accumulation), usual class: activators; Ubiquitin-GFP reporter cells, proteasome inhibition, GFP fluorescence; response scale: untreated = 0%, 10 µM MG-132 = 100%; 67,000 tested, under 10 active; AID 526; active = well fitted activation curve with a large enough effect, not every such curve was filed as active; inconclusive = small, poorly fitted or top-dose-only effect, or another doubt; inactive = no such curve, though single readings can be large or run the other way; note: potency is the fitted concentration of half-maximal effect
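Proteasome block read as GFP accumulation: ubiquitin(G76V)-GFP U2OS cells exposed to compound (2.9 nM–46 uM) for 4 hr at 37 C. Normalization used untreated cells as 0% and 10 uM MG-132 as 100%; concentration-response curves fitted.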
HBB splicing – alters splicing of the hemoglobin beta chain; HBB splicing reporter cell assay, activation; EGFP reporter with mutant IVS2-654 intron; response scale: normalised to 500 nM splice-correcting PNA; Potency, µM (highest dose often 46.1 µM), without a hit: top-dose activation, most hits filed as activators; 65,000 compounds, 0.06% hits; AID 925; note: potency is the fitted concentration of half-maximal effect; 0% is about no effect
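HeLa cells stably expressing EGFP interrupted by mutant beta-globin intron 2 (IVS2-654), 500/well in 2% FCS. Treated with compound for 2 days at 37C. Splicing correction scored as total well GFP intensity (488 nm excitation, 500-520 nm emission); 500 nM antisense PNA served as control.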
Pol III holo inh – blocks replication by bacterial DNA polymerase III holoenzyme; reconstituted DNA polymerase III holoenzyme replication, biochemical; Potency, µM (titrated, usually from 57.1 µM), inactives show at the top dose activity change, negative = inhibition; 71,000 compounds, 0.25% hits; note: potency is the fitted concentration of half-maximal effect; % is set by controls: 0 for no effect and ±100 for the full control effect
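Reconstituted *E. coli* holoenzyme (0.35 nM Pol III, 1 nM beta, 154 nM SSB, 2 nM primase) was preincubated with compound for 15 min at RT. Synthesis on 1.4 nM ssM13Gori ran 35 min, then was stopped with PicoGreen/EDTA and read as dsDNA fluorescence.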
CRE-bla Fsk – modulators of forskolin-stimulated CRE signaling in CHO cells; CHO CRE-bla reporter (cAMP response element driving beta-lactamase), forskolin EC10, beta-lactamase ratio; Potency, µM (doses to about 38.2 µM), without a hit: at the highest dose activity change, negative = inhibition, usual class: activators; 71,000 compounds, 2.5% hits; active = well fitted activation curve with a large enough effect in the signal ratio, with a control signal flat, not every such curve was filed as active; inconclusive = small, poorly fitted or top-dose-only effect, or effect the other way, or a change in a side signal; the % refers to the signal ratio; note: potency is the fitted concentration of half-maximal effect; % of control where 0% means no effect
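AC50 values, positive or negative, reflect shifts in EC10 NKH 477-induced CRE-bla reporter activity in CHO cells. Incubation lasted 3 h at 37 °C before CCF4 substrate (2 h, room temperature) and ratiometric 460/530 nm reading.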
Hsp90 Hop PPI – changes Hsp90-Hop TPR2A binding signal, up or down; AlphaScreen TPR2A-His6 binding biotin-Hsp90 C-terminal peptide; 71,000 compounds, 0.44% hits; Potency, µM (titrated, usually from 57 µM), for the others: top-dose activity change, negative = inhibition; AID 595; active = well fitted curve in either direction with a large enough effect; inconclusive = small, poorly fitted or top-dose-only effect, or another doubt; note: potency is the fitted concentration of half-maximal effect; % is set by controls: 0 for no effect and ±100 for the full control effect; many of its hits are not listed in these tables
Epigenetic mod – derepresses silenced GFP locus in mouse C127i cells. mouse C127i GFP locus derepression, cytometry, 30 h. Potency, µM (top dose mostly 46.1 µM), for inactives: at the top dose GFP derepression (activation). 68,000 compounds, 0.09% hits; note: % of control where 0% means no effect
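Read-out is the number of GFP-positive cells, scored as fluorescent objects 20 to 120 um wide, reflecting derepression of a silenced CMV-GFP reporter in murine C127i cells after 30 h compound exposure at 37 C.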
* hit, by the source's call; ? = inconclusive; · = not tested or not shown; & = joins results of further samples; [ ] = dose if it differs, or a comment. Unless noted, calls come from the whole dose curve; as a rule, active = well fitted curve in the direction sought with a large enough effect; inconclusive = small, poorly fitted or top-dose-only effect, or another doubt; inactive = no such curve, though single readings can be large; an effect the other way counts as inactive or inconclusive.

SMILES | Ub-GFP proteasome | HBB splicing | Pol III holo inh | CRE-bla Fsk | Hsp90 Hop PPI | Epigenetic mod
Cc1c(N(C)CS(=O)(=O)O)c(=O)n(-c2ccccc2)n1C | -5%[20.5 µM] | -1.8%[20.6 µM] | -5%[25.6 µM] | -3%[17.1 µM] | -3%[26 µM] | -2%[20.6 µM]
Nc1ccc(S(=O)(=O)Nc2ncccn2)cc1 | 3%[20.5 µM] | -0.2%[20.6 µM] | -7%[25.6 µM] | 5%[17.1 µM] | -2%[26 µM] | 0%&-2%[20.6 µM]
COC(=O)c1c(-c2cc(OC)c(OC)c(OC)c2)c2ccc(OCc3ccccn3)cc2c(=O)n1-c1ccc(N)cc1 | -10% | 1.1% | 16% | 13µM* | -18% | -2%
CC(=O)N1CCN(c2ccc(N=Cc3c(O)n(Cc4ccccc4)c(=O)[nH]c3=O)cc2)CC1 | · | 0.8%[0.369 µM] | -8% | ? | -4% | 4%
N[C@@H](CO)C(=O)O | 1%&-4%&-6% | 2.8% | -6%&3%&-8% | ? | -5%&0%&-4% | 3%&-1%&-1%
O=C(O)[C@@H](O)[C@H](O)C(=O)O | 10%[9.17 µM] | 4.4%[9.22 µM] | 4%[11.4 µM] | -9%[7.6 µM] | 3%[11 µM] | -6%[9.22 µM]
CN(C)[C@@H]1C(=O)C(C(N)=O)=C(O)[C@]2(O)C(=O)C3=C(O)c4c(O)ccc(Cl)c4[C@H](O)[C@H]3C[C@@H]12 | -1%[20.5 µM] | 0.7%[20.6 µM] | 1%[25.6 µM] | -8%[17.1 µM] | -7%[26 µM] | 0%[20.6 µM]
CN1CCC[C@@H]1c1cccnc1 | 3% | 0.8% | -4% | 0% | -3% | 3%
CCCCc1oc2ccccc2c1C(=O)c1cc(I)c(OCCN(CC)CC)c(I)c1 | -1%[20.5 µM] | 2.5%[20.6 µM] | -1%[25.6 µM] | 7%[17.1 µM] | -15%[26 µM] | 0%[20.6 µM]
CC(C(=O)O)c1cccc(C(=O)c2ccccc2)c1 (configuration not stated) | 0% | -0.2%[0.369 µM] | 0% | 6% | -2% | 2%
CN1[C@H]2CC(OC(=O)[C@@H](CO)c3ccccc3)C[C@H]1[C@H]1O[C@H]12 (some centres not stated) | 1%[20.5 µM] | 0.6%[20.6 µM] | -6%[25.6 µM] | 1%[17.1 µM] | ? | 3%[20.6 µM]
CCNC(=O)C1CC(=O)N(CC)C(=Nc2cc(Cl)c(O)c(Cl)c2)S1 (configuration not stated) | -3% | 0.1% | -5% | ? | 0% | -1%

An excerpt, so the mix of outcomes need not match the whole.
